# Mtb growth: M. tuberculosis H37Rv growth inhibitors, H37Rv strain (AID 1626) | 220,000 compounds, 0.95% hits | M. tuberculosis H37Rv growth inhibition; higher % means a stronger effect | inhibition, % at 10 µM; hits with a dose series show IC50 in µM;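 active = confirmed in a dose series; inconclusive = inhibition above 80% but not taken into the dose series; inactive = below 80% or under 30% at every dose of the series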;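 also: bacteria incubated seven days before Alamar blue readout; 0% = bacteria only wells and 100% = bacteria with antibiotic wells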
# YopH PTP inh: YopH tyrosine phosphatase inhibitors, primary screen, biochemical, fluorescence Ex485/Em525; inhibition, %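 (about 10 µM by stock and volumes)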; 140,000 compounds, 0.16% hits;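 active = inhibition of 50% or more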;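 also: controls were vehicle for no effect and minimum signal wells for full effect; inactives centre near -20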
# RecA intein inh: Mtb RecA intein splicing inhibitors, primary screen, biochemical, fluorescence, HTS | 290,000 compounds, 0.75% hits | inhibition, %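 (about 9 µM by stock and volumes)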 | Protein RecA (Mycobacterium tuberculosis (strain ATCC 25618 / H37Rv)), P9WHJ3 | cell-free RecA intein splicing; in the data active = inhibition above about 30%; inconclusive = no clear call, values can overlap the other calls;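 also: 0% = vehicle wells and 100% = reference inhibitor control wells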
# Target sequence (P9WHJ3 whole entry, looked up): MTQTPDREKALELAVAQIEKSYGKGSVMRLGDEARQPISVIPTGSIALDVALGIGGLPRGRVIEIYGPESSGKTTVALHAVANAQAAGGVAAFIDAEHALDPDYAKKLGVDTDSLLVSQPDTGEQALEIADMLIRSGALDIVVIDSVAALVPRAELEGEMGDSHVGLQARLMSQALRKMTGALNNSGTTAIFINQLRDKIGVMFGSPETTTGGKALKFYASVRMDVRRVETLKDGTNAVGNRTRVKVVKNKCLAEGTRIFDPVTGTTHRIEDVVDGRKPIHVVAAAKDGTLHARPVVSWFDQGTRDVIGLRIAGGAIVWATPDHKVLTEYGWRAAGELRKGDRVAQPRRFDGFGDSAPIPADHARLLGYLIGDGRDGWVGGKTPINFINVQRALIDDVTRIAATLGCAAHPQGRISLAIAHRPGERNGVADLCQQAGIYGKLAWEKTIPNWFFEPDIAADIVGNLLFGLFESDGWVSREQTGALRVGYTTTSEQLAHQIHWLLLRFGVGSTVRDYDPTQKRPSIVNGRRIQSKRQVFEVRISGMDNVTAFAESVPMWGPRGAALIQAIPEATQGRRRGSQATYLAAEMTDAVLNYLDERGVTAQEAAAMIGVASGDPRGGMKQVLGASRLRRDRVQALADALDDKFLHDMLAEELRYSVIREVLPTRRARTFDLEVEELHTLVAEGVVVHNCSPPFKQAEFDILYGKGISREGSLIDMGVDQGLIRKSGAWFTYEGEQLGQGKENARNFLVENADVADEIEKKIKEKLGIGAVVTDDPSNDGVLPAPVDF
# Mtb betalactam: beta-lactam sensitization of Mtb H37Rv, H37Rv | M. tuberculosis H37Rv growth with meropenem, percent inhibition; hits of this screen are not shown here | inhibition, % at 25 µM | 330,000 compounds, 0.27% hits;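 active = about 74% or more and at least 40 points above the plate without the antibiotic, then above 30% in a dose series; inconclusive = first-round hits that could not be retested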;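 also: growth measured after seven days incubation then overnight dye step; 0% = bacteria only wells and 100% = bacteria with antibiotic; twin plates without the antibiotic show which effects depend on it; some results filed as inactive read as strong as hits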
# Arbovirus inh: antivirals against arbovirus infection, primary screen, cell-based, full library, 10K replicate subset. 200,000 compounds, 0.37% hits. arbovirus infection cell-based antiviral screen. AID 1251, 2008. inhibition, % at 10 µM;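 active = inhibition from about 30%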;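 also: bluetongue infection of BSR cells; cell survival read as ATP light after 72 h; 0% = infected wells without compound and 100% = uninfected wells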
# Arbovirus inh repeat: recorded beside Arbovirus inh, whose call it bears; inhibition, %; measured here: 10K subset replicate screen; many hits read low in the repeat;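 first of two repeat runs on a subset; 0% = infected and 100% = uninfected wells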
# * hit, by the source's call; ? = inconclusive; . = not tested or not shown. Not all compounds are listed (hit frequency here may not be typical).
SMILES,Mtb growth,YopH PTP inh,RecA intein inh,Mtb betalactam,Arbovirus inh,others
CCOc1ccc(S(=O)(=O)Nc2cc(Sc3ncn[nH]3)c3oc(=O)sc3c2)cc1,-4%,-31,20,13,2,
O=C(COC(=O)c1ccccc1NC(=O)c1ccccc1)c1cccc([N+](=O)[O-])c1,3%,-5,-0.7,1,7,
CCCCCOc1ccc(CSCCNC(=S)Nc2ccccc2)cc1,6%,-12,2.4,68,14,
Cc1sc2ncnc(OCC(=O)N3CCN(S(=O)(=O)c4ccc(Cl)cc4)CC3)c2c1C,-1%,-5,-1.0,-12,10,
Cc1nc(=O)cc(-c2ccccc2)n1-c1ccccc1,-4%,22,0.7,-1,-2,
O=C(COC(=O)CCc1ccccc1)NC1CCS(=O)(=O)C1 (centres undefined),.,.,-2.5,1,.,
CC1CCCCN1S(=O)(=O)c1ccc(S(=O)(=O)N2CCN(c3ccc(F)cc3)CC2)cc1 (centres undefined),6%,-30,-0.8,2,-5,
COc1ccc(C(=O)OCC(=O)N2CCCC2=O)c(OC)c1,6%,.,0.9,0,6,
O=C(/C=C/c1ccco1)NC(=S)Nc1ccc(N2CCCC2)cc1,?,-24,-0.5,93,10,
Cc1cccnc1NC(=O)c1ccc(Br)o1,.,.,-0.9,-2,.,
COC(=O)c1sccc1NC(=O)Nc1cccc(F)c1,0%,.,3.3,-5,5,
Cc1cc(NC(=O)CCN2CCN(C/C=C/c3ccccc3)CC2)ccc1Br,.,.,3.9,98,.,
COc1cc2c(cc1OC)C(C(=O)Nc1cc(OC)c(OC)c(OC)c1)C(c1cccnc1)N(C)C2=O (centres undefined),0%,.,2.3,0,-1,
COc1ccc(N(CC(=O)N/N=C/c2ccc(F)cc2)S(=O)(=O)c2ccccc2)cc1,.,.,0.0,-1,.,
O=c1c2sccc2[nH]c(=S)n1-c1ccccc1,-2%,.,-1.5,-9,.,
Cc1ccc(C(=O)N2CCN(c3ccc(NC(=O)c4ccc5c(c4)OCCO5)cc3)CC2)cc1,.,.,2.4,-2,.,
CC1CC2(C)CC(C)C1(COC(=O)Nc1ccccc1)CO2 (centres undefined),-10%,.,0.2,-2,-4,
CNc1nc2cccnc2s1,-1%,.,2.6,-5,.,
C=CCn1c(SCC(=O)N2CCc3ccccc3C2)nc2sc(CC)cc2c1=O,11%,-27,4.0,10,14,
CC(Sc1nnnn1C)C(=O)Nc1ccc(Oc2ccccc2)cc1 (centres undefined),-1%,17,2.1,-1,-6,
O=C(COC(=O)CCC(=O)c1cccs1)NCc1cccs1,4%,.,0.7,0,.,
CCN(CC)P1(=O)OC(c2cc(OC)c(OC)c(OC)c2)=Nc2c1c(C)nn2-c1ccccc1 (centres undefined),-10%,-50,4.1,9,-7,Arbovirus inh repeat=-4
O=C(Oc1cccc(/C=N/NC(=O)c2ccccn2)c1)c1ccc([N+](=O)[O-])cc1,.,.,2.2,27,.,
COc1ccc(CC(=O)N/N=C/c2ccc(C)s2)cc1,.,.,3.2,-1,.,
COCCCN(C(=O)CC1OC(=O)c2ccccc21)c1c(N)n(Cc2ccccc2)c(=O)[nH]c1=O (centres undefined),.,.,1.1,-4,.,
COc1ccccc1-c1c(C)nn2c(N)c(-c3ccc(Cl)cc3)cnc12,.,.,-4.6,3,.,
COc1ccc2sc(NC(C)=O)nc2c1,-3%,10,-0.9,9,-1,
CCOc1ccc2nc(Cl)c(CN(C(=O)c3cnccn3)C3CCCC3)cc2c1,-1%,.,3.0,-2,3,
N#Cc1ccc(OCc2nnc3n2CCCCC3)cc1,0%,.,-2.5,6,5,
S=C(NCC1(c2ccccc2)CCCC1)Nc1ccccc1,.,.,1.2,0,.,
C=CCn1c(C)cc(C(=O)CSc2nnc(NC(C)C)s2)c1C,-4%,-35,5.8,-17,13,
CCOc1ccccc1C(=O)Nc1ccsc1C(=O)OC,23%,-21,-4.6,71,-12,
CC(=O)N/C(=C\c1ccccc1)C(=O)OCc1ccc(C)cc1,.,.,3.6,14,.,
CC(C)(O)C#Cc1ccc(C(=O)N2CCN(c3ccc([N+](=O)[O-])cc3)CC2)cc1,3%,.,2.7,-3,14,
c1coc(CNc2nc3ccccc3s2)c1,.,.,1.8,-4,.,
CC(C)NC(=S)N1CCCN(c2ncccc2[N+](=O)[O-])CC1,.,.,5.3,-10,.,
Cc1cccc[n+]1CC(=O)N1c2ccccc2Sc2ccccc21,7%,.,1.7,-4,-4,
O=C(O)c1ccc(CNC(=O)c2ccc(Br)o2)cc1,1%,-28,-0.2,2,2,
CCN(CC)S(=O)(=O)c1ccc(N2CCCC2)c(NC(=O)CC(C)(C)C)c1,-8%,.,-0.8,-4,.,
COc1ccc(C(=O)Cn2c(Br)nc3c2c(=O)n(C)c(=O)n3C)cc1,-11%,-33,4.2,-2,0,
COC(=O)c1cc(S(=O)(=O)NCC2CCN(CCc3ccc(OC)cc3)CC2)c[nH]1,.,.,0.0,17,.,
O=C(Nc1ccc(NC(=O)c2ccccc2Cl)nc1)c1ccncc1,-7%,.,-2.2,-8,-4,
O=C(CSc1cccc(C(F)(F)F)c1)NC(=O)NCc1ccco1,-4%,-29,.,4,9,
O=C1/C(=C\c2ccc([N+](=O)[O-])cc2)N2CCC1CC2,2%,-22,-0.9,1,9,
COCCOc1nc2ccccc2nc1C,2%,4,-0.6,-2,1,
CCN(c1ccccc1)S(=O)(=O)c1ccc(C(=O)Nc2ccncc2)cc1,.,.,2.7,2,.,
CCC(C)NCCOCCOc1ccc(Br)cc1C (centres undefined),2%,-16,2.5,-4,-29,
Cc1cc(=O)[nH]c(SCc2cc(Cl)ccc2OC(F)F)n1,6%,-40,-2.4,-4,-2,Arbovirus inh repeat=4
O=C(CCN1CCOCC1)c1ccccc1,0%,0,2.9,76,-36,
COc1ccc(/C=N/N2CCN(C3c4ccccc4-c4ccccc43)CC2)cc1O,-2%,-6,5.1,5,-27,
Cc1cc(F)ccc1S(=O)(=O)N1CCCOC1CNC(=O)C(=O)NCc1cccnc1 (centres undefined),.,.,-0.1,-14,.,
O=S(=O)(NCC1CCCO1)c1ccc(Cl)cc1 (centres undefined),.,.,-3.0,-4,.,
CC(Sc1nnnn1C)C(=O)Nc1ccc2c(c1)OCCO2 (centres undefined),3%,.,-0.1,1,2,
CCNC(=O)c1nc[nH]c1C(=O)NCC,9%,-55,.,-6,1,
O=C(NCc1ccccc1)c1ccc2c(c1)C(=O)N(Cc1cccnc1)C2=O,.,.,-1.9,-6,.,
Cc1ccc(/C=N/n2nnnc2N)cc1,.,.,-1.2,-9,.,
COc1ccccc1OC(C)C(=O)N(Cc1ccco1)C1CCS(=O)(=O)C1 (centres undefined),.,.,5.4,1,.,
O=c1[nH]c(C2CCN(S(=O)(=O)Cc3ccccc3)CC2)nc2c1nnn2Cc1cccc(Cl)c1,.,.,4.3,-4,.,
Cn1c(N)c(C(=O)c2cc(-c3ccccn3)nc3ccccc23)c(=O)[nH]c1=O,-1%,-23,4.0,.,4,
c1ccn2c(SCc3ccc4c(c3)OCO4)nnc2c1,-2%,-22,-1.3,1,-4,

# The list continues.
SMILES,Mtb growth,YopH PTP inh,RecA intein inh,Mtb betalactam,Arbovirus inh,others
COc1ccc(C(C)=O)cc1CSc1ccc2c(c1)OCCO2,.,.,4.2,-6,.,
CCOC(=O)C(C(=O)NCCCN1CCOCC1)C1CCCCC1 (centres undefined),2%,-15,-2.2,-6,6,
O=c1[nH][nH]c(C(F)(F)F)c1C=NCc1ccc(Cl)cc1,-1%,4,-4.1,-6,1,
CCOn1c(=O)c[n+]([O-])c2ccccc21,-5%,.,-17,-1,-5,
N#CCC(=O)Nc1ccc(C(=O)OCC(=O)N(C2CCCCC2)C2CCCCC2)cc1,.,.,-1.4,3,.,
O=C1NC(=O)/C(=C/c2ccc(-c3cc(C(=O)O)ccc3Cl)o2)S1,.,.,-12,0,.,
CCOC(=O)c1cnc(N2CCN(C(=O)OCC)CC2)[nH]c1=O,3%,.,-4.4,-6,16,
O=C(NCCCN1CCCC1)c1ccc2c(c1)N(Cc1ccc(F)cc1)C(=O)c1ccccc1S2=O (centres undefined),.,.,-1.9,6,.,
COc1ccccc1CNC(=O)CCCC(=O)n1nc(C)c2ccccc21,.,.,1.8,1,.,
O=C(NCCOc1ccc(Cl)cc1)C1CCCCC1,10%,.,4.3,-12,-2,
Cc1nn(-c2ccccc2)c(Oc2ccc(F)cc2)c1/C=N/n1cnnc1,5%,-2,.,-6,13,
CCN(CC)C(=O)C1c2ccccc2Oc2ccccc21,.,.,-3.0,-24,.,
Oc1ccc(Cl)cc1C1=NNC(c2ccc(Cl)cc2)C1 (centres undefined),0%,-51,7.2,87,-10,
Cc1ccc(S(=O)(=O)NC(=NC2CCCCC2)c2ccccc2)cc1,.,.,2.6,-8,.,
Cc1cc(C)n(-c2ccc(C(=O)Oc3ccc4c(c3)OCO4)cc2)n1,4%,2,-4.5,100,-2,
C=CCNC(=O)C12CC3(C)CC(C)(CC(C)(C3)C1)C2,3%,-5,0.9,-4,2,
COc1ccc(NC(=O)CN(C)C(=O)/C=C/c2ccc(S(=O)(=O)N3CCCCCC3)cc2)cc1,.,.,-0.9,-19,.,
COc1cc(/C=N/NC(=O)CSc2ccccn2)ccc1OC(C)C,0%,.,.,-4,.,
CCC(Oc1ccccc1F)C(=O)Nc1ccc2c(c1)n(C)c(=O)n2C (centres undefined),.,.,0.5,-1,.,
COc1cc2c(=O)n(CCCN3CCOCC3)c(=S)[nH]c2c(OC)c1OC,-14%,-22,2.3,4,9,
CN(C1CCCCC1)S(=O)(=O)c1cccc(C(=O)OCC(=O)NC2CCCc3ccccc32)c1 (centres undefined),-5%,-31,5.6,-6,1,
O=C(Nc1ccc(Cl)cn1)C1C(c2ccccc2)C1(Cl)Cl (centres undefined),2%,.,.,11,-11,
COc1cc2c(cc1OC)C(C(=O)Nc1ccc3c(c1)OCCO3)C(c1cccnc1)N(C)C2=O (centres undefined),.,-27,-2.5,-9,5,Arbovirus inh repeat=0
Cc1ccc(NC(=O)N2CCCCCC2)c(C)c1,.,.,0.6,-2,.,
CCOC(=O)N1CCN(Cc2cc(=O)oc3ccc(Cl)cc23)CC1,-7%,3,-2.8,-8,10,
Cc1ccccc1CCNCc1cc2cccc(C)c2[nH]c1=O,.,.,0.9,-5,.,
CN(/C(=N/S(=O)(=O)c1cccs1)c1ccccc1)c1ccccc1,-6%,4,1.4,-5,3,
O=C1OCC(Cn2c3ccccc3c3ccccc32)O1 (centres undefined),-2%,-51,1.2,-10,8,
COc1ccc(CC(=O)Nc2c3c(nn2-c2cccc(C)c2C)CS(=O)C3)cc1 (centres undefined),3%,-23,0.8,-2,-8,
COC(=O)CCCNC(=O)c1ccc(OC2CCN(CCc3ccccc3)CC2)cc1,0%,.,2.9,-6,-3,

# 7 compounds picked at random from the list so far:
SMILES,Mtb growth,YopH PTP inh,RecA intein inh,Mtb betalactam,Arbovirus inh,others
CN(C1CCCCC1)S(=O)(=O)c1cccc(C(=O)OCC(=O)NC2CCCc3ccccc32)c1 (centres undefined),-5%,-31,5.6,-6,1,
COc1ccc(NC(=O)CN(C)C(=O)/C=C/c2ccc(S(=O)(=O)N3CCCCCC3)cc2)cc1,.,.,-0.9,-19,.,
Cc1ccc(NC(=O)N2CCCCCC2)c(C)c1,.,.,0.6,-2,.,
COc1cc(/C=N/NC(=O)CSc2ccccn2)ccc1OC(C)C,0%,.,.,-4,.,
COC(=O)CCCNC(=O)c1ccc(OC2CCN(CCc3ccccc3)CC2)cc1,0%,.,2.9,-6,-3,
COc1cc2c(cc1OC)C(C(=O)Nc1ccc3c(c1)OCCO3)C(c1cccnc1)N(C)C2=O (centres undefined),.,-27,-2.5,-9,5,Arbovirus inh repeat=0
COc1cc2c(=O)n(CCCN3CCOCC3)c(=S)[nH]c2c(OC)c1OC,-14%,-22,2.3,4,9,

# (more compounds)
SMILES,Mtb growth,YopH PTP inh,RecA intein inh,Mtb betalactam,Arbovirus inh,others
O=C(N/N=C/c1ccc(OC(=O)c2cccs2)cc1)c1ccccn1,.,.,4.8,97,.,
Cc1cc(C)cc(-n2c(C)cc(C=C(C#N)C#N)c2C)c1,3%,-50,-7.4,6,2,
Cc1onc(-c2ccccc2Cl)c1C(=O)N1CCN(c2nc3ccccc3s2)CC1,9%,-27,6.3,0,9,
CC(=O)N1N=C2C3CCN(CC3)C2C1c1ccc(F)cc1 (centres undefined),1%,.,-0.9,-2,3,
COc1cccc(-c2nnc(SCC(=O)OC(C)C)n2Cc2ccco2)c1,5%,-26,-0.6,-9,2,
COc1ccccc1Oc1ccc(NC(=O)Cc2ccccc2)cc1,.,.,3.0,-3,.,
CC(C)CC(=O)Nc1ccc([N+](=O)[O-])cc1Cl,5%,.,-0.2,-1,-6,
COC(=O)c1ccc(COC(=O)c2ccc(-n3cnnn3)cc2)o1,1%,-34,-0.9,7,-4,
